RE007 growth inh: less growth of the S. pombe RE007 Vpr strain; Potency, µM (series often up to 92.2 µM), for inactives: top-dose activity change, negative = less growth; actives 0.21% (n = 360,000); S. pombe RE007 Vpr strain, BacTiter-Glo ATP luminescence, 24 h; control for the full effect not named in the record; active = well fitted falling curve with a large enough effect; inconclusive = small, poorly fitted or top-dose-only effect; inactive = no such curve, though single readings can be large or run the other way;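 also: % is scaled to controls: 0 for no effect and ±100 for the full control effect; nearly all actives have a fitted effect of over 50% in size; the assay follows cell death caused by Vpr and the record does not say whether a fall means rescue or toxicity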
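Fission yeast strain RE007, carrying one chromosomally integrated HIV-1 vpr copy, was seeded at OD 0.01 in PMG+AL medium with 23 nL pinned compound. After 24 h at 30 °C and 99% humidity, viability was read by BacTiter-Glo luminescence.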
SARS PLP yeast: SARS-CoV PLP inhibition in yeast; S. cerevisiae expressing SARS-CoV PLpro, growth rescue; control for the full effect not named in the record; Potency, µM (top dose mostly 32.9 µM), for the others: top-dose activity, positive = growth rescue; actives 0.19% (n = 330,000); active means well fitted rising curve with a large enough effect; inconclusive means small, poorly fitted or top-dose-only effect; inactive means no such curve, though single readings can be large or run the other way; also: 0% is about no effect; nearly all actives have a fitted effect of over 55% in size; growth read by luminescence after 48 h
MARV entry inh: blocks Marburg virus binding to or entry into cells; Potency, µM (top dose mostly 37.8 µM), for inactives: top-dose activity change, negative = inhibition, hits mostly inhibitors; Marburg virus pseudotyped entry inhibition, cell reporter; control for the full effect not named in the record; about a third of the inactives were read at about 46 µM; actives 1.8% (n = 300,000); active = well fitted inhibition curve with a large enough effect; inconclusive = small, poorly fitted or top-dose-only effect, or effect the other way; inactive = flat fitted curve, though single readings scatter; tested in HEK293 cells; about a fifth of its hits are not listed in these tables; also: % is scaled to controls: 0 for no effect and ±100 for the full control effect; luciferase read-out
Cruzain inh noDet: blocks cruzain activity in detergent-free assay; purified cruzain, Z-FR-AMC fluorescence, no detergent; Potency, µM, for the others: max response, negative = inhibition, actives largely listed as inhibitors; actives 2.3% (n = 200,000);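 also: plate controls were enzyme without inhibitor for no effect and buffer without enzyme for full effect; nearly all actives have a fitted effect of over 40% in size; top concentration of the series not given in the record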
Target sequence (P25779 123-467 limits assumed): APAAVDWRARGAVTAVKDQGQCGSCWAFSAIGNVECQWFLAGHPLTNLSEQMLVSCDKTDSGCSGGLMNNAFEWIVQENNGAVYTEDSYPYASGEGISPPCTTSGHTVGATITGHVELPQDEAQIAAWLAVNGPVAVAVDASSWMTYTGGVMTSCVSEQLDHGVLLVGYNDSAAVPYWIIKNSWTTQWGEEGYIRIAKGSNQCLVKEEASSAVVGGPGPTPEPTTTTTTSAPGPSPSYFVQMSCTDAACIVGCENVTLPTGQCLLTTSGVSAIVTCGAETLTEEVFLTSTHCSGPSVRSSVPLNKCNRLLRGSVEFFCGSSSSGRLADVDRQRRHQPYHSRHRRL
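Detergent-free condition (0.00005% Triton X-100) in acetate buffer pH 5.5 with DTT. 1.5 nM enzyme and compound were pre-mixed 15 min, then 2 uM Z-FR-AMC substrate added; reaction progress from fluorescence change between first and third reads (60 s).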
LASV entry inh: Lassa virus entry inhibition | Lassa virus pseudotype entry inhibition, cell reporter; control for the full effect not named in the record | Potency, µM (doses to about 37.9 µM), without a hit: top-dose activity change, negative = inhibition, hits mostly inhibitors | actives 1.2% (n = 300,000); active means well fitted inhibition curve with a large enough effect; inconclusive means small, poorly fitted or top-dose-only effect, or effect the other way; inactive means flat fitted curve, though single readings scatter; tested in HEK293 cells; also: % is scaled to controls: 0 for no effect and ±100 for the full control effect; nearly all actives have a fitted effect of over 50% in size; luciferase read-out
NS1 function inh: blocks influenza NS1 protein function; Potency, µM (series often up to 46.1 µM), inactives show at the top dose activity, positive = more growth; S. cerevisiae slowed by influenza A NS1, growth recovery by OD600; actives 0.4% (n = 270,000); active means well fitted rising curve with a large enough effect; inconclusive means small, poorly fitted or top-dose-only effect; inactive means no such curve, though single readings can be large or run the other way; also: nearly all actives have a fitted effect of over 50% in size
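S. cerevisiae expressing influenza A NS1, grown in glucose, washed, then diluted 1:100 into pH 6.0 -URA galactose medium with 23 nl compound. Growth recovery read as OD600; NS1-free strain serves as control.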
2A StopGo: lowers the luciferase signal of an FMDV 2A StopGo reporter; human cells with a luciferase reporter of 2A StopGo recoding; control for the full effect not named in the record; Potency, µM (doses to about 57.9 µM), without a hit: top-dose signal change, negative = less light; actives 1.2% (n = 410,000); active = well fitted falling curve with a large enough effect; inconclusive = small, poorly fitted or top-dose-only effect; inactive = no such curve, though single readings can be large or run the other way; tested in HEK293T cells; also: % is scaled to controls: 0 for no effect and ±100 for the full control effect; nearly all actives have a fitted effect of over 45% in size; luciferase light after 4 h
Cruzain inh Det: blocks cruzain activity in presence of Triton detergent | P25779 | purified cruzain, Z-FR-AMC fluorescence, 0.01% Triton | Potency, µM, without a hit: max response, negative = inhibition, actives largely listed as inhibitors | actives 0.43% (n = 200,000) | AID 1478;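 also: plate controls were neutral wells for no effect and buffer without enzyme for full effect; nearly all actives have a fitted effect of over 40% in size; top concentration of the series not given in the record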
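Read-out: AMC fluorescence (360 nm excitation, 450 nm emission), four reads over 2 min, first-to-third difference used. Conditions: cruzain 1.5 nM, Z-FR-AMC 2 uM, pH 5.5 acetate, 5 mM DTT, 0.01% Triton X-100.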
Numbers without * were called inactive; ? = inconclusive; nt = not tested or not shown; & = joins results of further samples; [ ] = another dose, or the depositor's remark. Unless noted, calls follow the shape of the dose curve; as a rule, active = well fitted curve in the direction sought with a large enough effect; inconclusive = small, poorly fitted or top-dose-only effect, or another doubt; inactive = no such curve, though single readings can be large; an effect the other way counts as inactive or inconclusive. Potency is read from the fitted curve at half-maximal effect.

| mol | 2A StopGo | RE007 growth inh | MARV entry inh | Cruzain inh Det | SARS PLP yeast | NS1 function inh | LASV entry inh | Cruzain inh noDet |
| --- | --- | --- | --- | --- | --- | --- | --- | --- |
| Cc1ccnc(NC(=O)c2c(-c3ccccc3Cl)noc2C)c1 | 2% | 0% | 16% | 0.3% | 8% | 1% | 7% | -1% |
| Cn1cc([N+](=O)[O-])c(C(=O)Nc2ccn(C34CC5CC(CC(C5)C3)C4)n2)n1 | -17% | 6% | ? | -0.7% | 13% | -7% | 9% | 12% |
| COc1ccc(Cl)cc1NC(=O)Cn1ncc2c3ccccc3n(Cc3ccccc3)c2c1=O | 5% | nt | 24%[46.1 µM] | 1.8% | nt | nt | 11%[46.1 µM] | 11% |
| CCNS(=O)(=O)c1c(C)cc(C)c(N(C)S(=O)(=O)c2ccccc2)c1C | 41%[activator] | 2% | -10%[46.1 µM] | nt | -1% | nt | -17% | nt |
| Cc1cc[n+](CC(=O)Nc2nc3ccccc3s2)cc1 | -12% | 7% | ? | nt | 0% | 0% | 1%[46.1 µM] | nt |
| Cc1c(N2C(=O)C(=O)/C(=C(/O)c3ccccc3)C2c2ccc(F)cc2)c(=O)n(-c2ccccc2)n1C (stereo unspecified) | -5% | -5% | 7% | -3.4% | 12% | -4% | 13% | 0% |
| Cc1ccc(C)c2[nH]c(=O)c(C(c3nnnn3C(C)(C)C)N3CC=C(c4ccc(F)cc4)CC3)cc12 (stereo unspecified) | -1% | nt | -9%&13% | -5.6% | -1% | 16% | -2%&-2% | ? |
| CC(C)Cc1cc(C(=O)N2CCC(N3CCC(C(=O)N4CCCC4)CC3)CC2)n[nH]1 | 0% | -6% | ? | nt | 0% | 16% | -2% | nt |
| CC1(C)C(=O)Nc2ccccc2N1C(=O)CSc1nnc2c(Cl)cc(Cl)cn12 | -21% | 5% | 3% | -9.5% | 5% | 0% | ? | -7% |
| COc1ccc(S(=O)(=O)N(C)CC(=O)NCCCN2CCOCC2)cc1C | -9% | 10% | 16%[46.1 µM] | nt | nt | nt | 8% | nt |
| CCn1c(=S)sc2c(=O)n(CC(=O)Nc3ccc(Cl)cc3)c(C)nc21 | 8% | -5% | ? | nt | -1% | 10% | -2%[46.1 µM] | nt |
| COc1ccccc1NC(=O)CSc1nc(=O)n(CCN2CCOCC2)c2c1CCC2 | -8% | 0% | -17% | nt | 2% | nt | -1% | nt |
| O=C(CCCCCn1c(=O)[nH]c2ccsc2c1=O)NCc1ccccc1 | 24% | nt | ? | -3.7% | nt | nt | 11%[46.1 µM] | 5% |
| O=C(CSc1nnc(-c2ccccc2Cl)n1Cc1ccco1)Nc1ccc2c(c1)OCCO2 | -18% | 5% | ? | 1.3% | -1% | -8% | -24% | -6% |
| Cc1occc1C(=O)N1CCN(c2ccc(Cl)c(Cl)c2)CC1 | -29% | -9% | -16% | -11% | -13% | -58% | 20%[14.3 µM] | -3% |
| CCOC(=O)C1(CCc2ccccc2)CCN(C(=O)C2=C(C)OCCO2)CC1 | 3% | -11% | 5%[46.1 µM] | nt | -1% | -2% | -23% | nt |
| O=C(CSc1nc2ccccc2c(=O)n1-c1ccc(F)cc1)Nc1ccc(C(=O)O)cc1 | 5% | 0% | 0% | nt | 0% | 14µM* | 11% | nt |
| O=[N+]([O-])c1cccc(OCc2cn3cccnc3n2)c1 | 24% | -12% | ? | nt | 0% | nt | 17% | nt |
| O=C(COc1ccc2c(C(F)(F)F)cc(=O)oc2c1)Nc1ccc2c(c1)OCCO2 | -21% | 9% | 23% | -1.0% | 4% | 7% | ? | 7.9µM* |
| O=C(C(Cc1ccccc1)N1C(=O)C2C3C=CC(C3)C2C1=O)N1CCCCCC1 (stereo unspecified) | -6% | 2% | -1% | -0.5% | nt | 6% | 4% | 16% |
| CC(=O)Nc1ccc(S(=O)(=O)NC(C)(C#N)C2CC2)cc1 (stereo unspecified) | -5% | 24% | 0%[46.1 µM] | nt | 2% | 8% | 8% | nt |
| O=C(O)c1cc(N2C(=O)C=CC2=O)cc(N2C(=O)C=CC2=O)c1 | -19% | 17% | 10µM* | nt | nt | nt | -20% | nt |
| COc1cccc(NS(=O)(=O)c2ccc3c(c2)n(C)c(=O)n3C)c1 | 0% | nt | ? | -0.1% | nt | nt | -18%[46.1 µM] | 5% |
| Cc1sccc1/C=N/NC(=O)c1ccco1 | 22% | -3% | nt | nt | -4% | 16% | nt | nt |
| CN1CCN(c2ncnc3c2cnn3-c2ccc(Cl)cc2)CC1 | -45% | 9% | nt | 2.0% | -10% | 0% | nt | 6% |
| O=C(O)CSCC(=O)N1CCN(Cc2ccc3c(c2)OCO3)CC1 | 12% | 5% | ? | nt | -2% | -4% | 15% | nt |
| CC(=O)Nc1ccc(NC(=O)C2CC(=O)Nc3nc4ccccc4n32)cc1 (stereo unspecified) | -8% | 3% | 5%[46.1 µM] | nt | 1% | 8% | 0% | nt |
| CC1(C)Oc2ccc3ccc(=O)oc3c2/C(=C/NNC(N)=S)C1=O | -12% | 3% | -8%[46.1 µM] | nt | 1% | 8% | 1%[46.1 µM] | nt |
| CCn1cc(CNC(=O)/C=C/c2cnn(C)c2)c(C)n1 | -11% | -1% | 5% | -0.1% | ? | 23% | ? | -4% |
| COC(=O)c1c(C)oc(C)c1S(=O)(=O)N1CCOCC1 | -9% | -6% | nt | nt | 1% | 2% | nt | nt |

Continued; it opens with the three that closed the last part.
| mol | 2A StopGo | RE007 growth inh | MARV entry inh | Cruzain inh Det | SARS PLP yeast | NS1 function inh | LASV entry inh | Cruzain inh noDet |
| --- | --- | --- | --- | --- | --- | --- | --- | --- |
| CC1(C)Oc2ccc3ccc(=O)oc3c2/C(=C/NNC(N)=S)C1=O | -12% | 3% | -8%[46.1 µM] | nt | 1% | 8% | 1%[46.1 µM] | nt |
| CCn1cc(CNC(=O)/C=C/c2cnn(C)c2)c(C)n1 | -11% | -1% | 5% | -0.1% | ? | 23% | ? | -4% |
| COC(=O)c1c(C)oc(C)c1S(=O)(=O)N1CCOCC1 | -9% | -6% | nt | nt | 1% | 2% | nt | nt |
| CC(=O)N1CCOc2cc(S(=O)(=O)Nc3cc(C(F)(F)F)ccc3Cl)c(C)cc21 | 48%[activator] | nt | nt | 4.9% | nt | nt | 8%[46.1 µM] | ? |
| Cn1cccc1-c1cc(C(=O)N/N=C/c2ccc(F)cc2)[nH]n1 | -15% | -8% | -4%[46.1 µM] | nt | -1% | 16% | ? | nt |
| CSc1nnc(C)c(/C=C/NOCc2ccc(Cl)cc2)n1 | -5% | -18% | ? | nt | -4% | nt | -2% | nt |
| O=C(OCC(=O)N1CCc2ccccc21)[C@@H]1CC(O)CN1S(=O)(=O)c1ccccc1[N+](=O)[O-] (stereo partly specified) | -14% | -10% | -9% | nt | 1% | nt | 10% | nt |
| CSc1ccccc1NC(=O)CN(C)CC(=O)Nc1ccccc1F | -26% | nt | 9% | 0.2% | -10% | 0% | 2% | 7% |
| CC(C)C(=O)Nc1ccccc1N1CCN(S(C)(=O)=O)CC1 | 3% | 2% | 11% | 4.3% | -1% | 0% | 19% | -5% |
| CCOc1cc(/C=C2\SC(=NC)N(C)C2=O)cc(Cl)c1OC(C)=O | 0% | 6% | nt | nt | 1% | 2% | nt | nt |
| CCc1cc2c(Nc3ccc(O)cc3)nc(C)nc2s1 | -13% | -6% | nt | nt | 0% | -16% | nt | nt |
| O=C(COc1ccc(-n2cnnn2)cc1)NC1CCCCC1 | -19% | 1% | -12% | 3.7% | 1% | -8% | -3% | 9% |
| Cc1ccc(NC(=S)N2CCCCCC2)cc1 | 50%[activator] | -29% | 22% | nt | 0% | -2% | 6% | nt |
| CC(=O)c1ccc(N2CCN(S(=O)(=O)c3ccc4c(c3)C(C)(C)C(=O)N4)CC2)cc1 | -10% | nt | nt | -12% | nt | nt | -2%[46.1 µM] | 17% |
| COC(=O)c1ccc(C(=O)OC)c(NC(=O)COC(=O)C2CC2C)c1 (stereo unspecified) | -22% | -7% | 4% | -4.9% | 0% | -6% | ? | 13% |
| O=C(NCc1ccc(Cl)cc1)c1cc(=O)[nH]c2ccccc12 | -1% | 4% | 3%[46.1 µM] | nt | 1% | 6% | 6%[46.1 µM] | nt |
| O=C(c1cccc(C(F)(F)F)c1)N1CCC(O)(CS(=O)(=O)Cc2ccccc2Cl)CC1 | -9% | -12% | -27% | 1.6% | 6% | 11% | ? | 17% |
| COC(C(=O)Nc1ccc(F)cc1F)c1ccccc1 (stereo unspecified) | -9% | -9% | -14% | 5.6% | -2% | 7% | 2% | -12% |
| CC1CCc2cc(F)ccc2N1C(=O)c1cccnc1 (stereo unspecified) | 1% | -10% | 1%[46.1 µM] | nt | 2% | 2% | -1%[46.1 µM] | nt |
| N#Cc1ccc(Oc2cccnc2)cc1C#N | -6% | 5% | ? | -2.6% | 5% | 7% | -12% | -4% |
| O=C(CCc1nc2ccccc2c(=O)[nH]1)N1CCN(S(=O)(=O)c2ccc(Cl)c(C(F)(F)F)c2)CC1 | -30% | -3% | -23% | nt | nt | nt | 2% | nt |
| CSCC[C@H](NC(=O)OC(C)(C)C)C(=O)N/N=C/c1ccc2nccnc2c1 | -11% | ? | 3.2µM* | nt | 1% | -3% | -12% | nt |
| COc1cc(C(NC=O)C(=O)Nc2c(C)cccc2C)ccc1O (stereo unspecified) | ? | 1% | nt | nt | 1% | 6% | nt | nt |
| Nc1nc(Cl)c2ncn(C3OC(CO)C(O)C3O)c2n1 (stereo unspecified) | 5%&9% | -22% | 20% | 2.4% | -5% | nt | 12% | -2% |
| O=C(CSc1nnnn1C1CCCC1)Nc1ccccc1N1CCOCC1 | -16% | -13% | -4% | nt | 0% | -9% | 2% | nt |
| COc1ccc(N(CC(=O)NCc2ccc3c(c2)OCO3)S(C)(=O)=O)cc1OC | nt | -7% | 5% | 3.5% | 2% | 4% | 7% | -2% |
| Brc1cccc(CNCCSc2nnnn2-c2ccccc2)c1 | -11% | nt | 8%[46.1 µM] | 0.7% | nt | nt | -5%[46.1 µM] | 0% |

Screens from PubChem BioAssay.
